Rtt109 Vps75 = inhibitors of Candida albicans Rtt109/Vps75 histone acetyltransferase; Q5AAJ8; purified Rtt109/Vps75, ThioGlo CoA-SH fluorescence, 4 h; inhibition, % at 34.9 µM; 330,000 tested, 0.16% active; AID 540336;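 active = inhibition of at least 50% in every replicate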
Target sequence (Q5AAJ8 whole entry, looked up): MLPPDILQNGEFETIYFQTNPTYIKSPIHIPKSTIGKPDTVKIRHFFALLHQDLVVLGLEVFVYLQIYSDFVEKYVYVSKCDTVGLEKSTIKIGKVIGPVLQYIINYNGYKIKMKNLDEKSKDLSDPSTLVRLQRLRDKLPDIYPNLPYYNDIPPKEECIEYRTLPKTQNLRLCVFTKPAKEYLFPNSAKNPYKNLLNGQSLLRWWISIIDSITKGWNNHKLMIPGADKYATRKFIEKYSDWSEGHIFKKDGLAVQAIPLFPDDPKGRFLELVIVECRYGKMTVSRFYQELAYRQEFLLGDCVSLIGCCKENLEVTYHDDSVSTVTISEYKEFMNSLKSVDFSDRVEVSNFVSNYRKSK
HTR5A ag = counter-screen for OPRM1-OPRD1 agonists: human HTR5A agonism; 340,000 tested, 0.61% active; activation, % at 9.3 µM; AID 504692; HTR5A agonist assay, luminescence, cell-based; in the data active = activation mostly above about 9.5%, no sharp cut-off; inactive = mostly below about 7.6%;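 also: 0% = cells with vehicle only and 100% = reference agonist; strong numbers were not always called active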
dFosB activator = mouse delta FosB homodimer activation | P13346 | purified delta FosB, TAMRA-CDK5 oligo fluorescence polarization; percent of positive-control signal above neutral wells | activation, % at 25 µM | 340,000 tested, 0.99% active;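 active = mean activation above about 17%, with every replicate also reaching it, limit read from the data, passing the limit was not always enough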;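 also: fluorescence polarization rise as delta FosB binds a TAMRA Cdk5 AP-1 oligo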
cardiac RTF act = cardiac RTF calcium sensitization. P19429+P45379. IANBD-labeled TnC RTF fluorescence at EC20 calcium; 0% EC20 calcium, 100% full calcium. activation, % at 7.2 µM. 340,000 tested, 0.24% active. AID 493008;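 active = activation above the mean over all tested compounds plus 3 SD, cut at about 30% in these data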;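 also: rise in fluorescence read as greater calcium sensitivity of cardiac thin filaments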
Wnt bcat act = Wnt/beta-catenin pathway activation. Wnt/beta-catenin reporter cell assay, activator, plate reader. activation, % at 9.35 µM. 300,000 tested, 1.2% active. AID 743398; in the data active = activation above about 30%, passing the limit was not always enough;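 also: 0% = neutral control wells and 100% = positive control wells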
Starred values were filed as active, the others as inactive; & = joins results of further samples. These rows are one share of the data; rates above refer to the full screens.

Results for NS(=O)(=O)c1ccc(N=Nc2c(O)[nH]c3ccc(Br)cc23)cc1 ?
Rtt109 Vps75: 3.5; HTR5A ag: -0.7; dFosB activator: -0.7; cardiac RTF act: -6.0; Wnt bcat act: 0.9

Results for O=C(O)CCNC(=O)c1ccccc1 ?
Rtt109 Vps75: 3.7; HTR5A ag: -1.5; dFosB activator: 1.7; cardiac RTF act: -2.1; Wnt bcat act: -1.4

What do the screens show for `CN1C2CCC1CC(OC(=O)C(CO)c1ccccc1)C2` (stereo not given)?
Rtt109 Vps75: -6.1; HTR5A ag: -3.2; dFosB activator: 2.5; cardiac RTF act: inactive; Wnt bcat act: -0.6

What do the screens show for `CC[C@H](CO)Nc1nc(Nc2cccc(Cl)c2)c2ncn(C(C)C)c2n1`?
Rtt109 Vps75: 10.8; HTR5A ag: 3.0; dFosB activator: -5.2; cardiac RTF act: 1.9; Wnt bcat act: -3.5

What do the screens show for `O=C(c1ccc(NS(=O)(=O)c2ccccc2)cc1)N1CCN(c2ccccc2)CC1`?
Rtt109 Vps75: 16.8; HTR5A ag: 1.3; dFosB activator: -13.0; cardiac RTF act: -1.6; Wnt bcat act: 0.1

What do the screens show for `O=C(O)c1cc(NS(=O)(=O)c2cccc3ccccc23)ccc1O`?
Rtt109 Vps75: 2.5; HTR5A ag: -1.9; dFosB activator: -5.0; cardiac RTF act: 6.6

Results for COc1cccc(Nc2ncnc3ccccc23)c1 ?
Rtt109 Vps75: 6.3; HTR5A ag: -1.3; dFosB activator: 2.4; cardiac RTF act: 1.7

How did COc1c(N2C[C@@H]3CCCN[C@@H]3C2)c(F)cc2c(=O)c(C(=O)O)cn(C3CC3)c12 do in these assays?
Rtt109 Vps75: -99.1; HTR5A ag: -0.8; dFosB activator: -6.3; cardiac RTF act: -2.2; Wnt bcat act: 0.6

Results for COc1ccc(CC(C)NCC(O)c2ccc(O)c(NC=O)c2)cc1 (stereo not given) ?
Rtt109 Vps75: -6.5; HTR5A ag: -0.8; dFosB activator: 6.6; cardiac RTF act: -5.2; Wnt bcat act: -5.1&1.8

How did Cc1cnc(NC(=O)C2=C(O)c3ccccc3S(=O)(=O)N2C)s1 do in these assays?
Rtt109 Vps75: 17.5&14.4&9.7&-5.2; HTR5A ag: 1.3&-1.5&5.6&2.3; dFosB activator: -1.4&0.3&1.5&2.5; cardiac RTF act: -8.0&1.4&-1.7&-2.3; Wnt bcat act: -0.4&-0.5&-4.8&-1.1

What do the screens show for `Cc1cnc(NC(=O)C2C(=O)c3ccccc3S(=O)(=O)N2C)s1` (stereo not given)?
Rtt109 Vps75: -0.8; HTR5A ag: 2.7; dFosB activator: -0.4; cardiac RTF act: -2.4; Wnt bcat act: -1.7

What do the screens show for `CN(C)S(=O)(=O)c1ccc2c(c1)/C(=C/c1cc3c([nH]1)CCCC3)C(=O)N2`?
Rtt109 Vps75: 4.5; HTR5A ag: 4.2; dFosB activator: -14.2; cardiac RTF act: 61.2*; Wnt bcat act: 34.5*

How did CCOc1ccccc1C1NC(=O)c2ccccc2N1 (stereo not given) do in these assays?
Rtt109 Vps75: -0.4; HTR5A ag: -1.3; dFosB activator: -1.8; cardiac RTF act: -3.7; Wnt bcat act: -3.6

Results for CCN1/C(=C\C(C)=O)Sc2ccc(OC)cc21 ?
Rtt109 Vps75: 5.4; HTR5A ag: -3.8; dFosB activator: 5.6; cardiac RTF act: -3.0

Entries from the list above containing nitrogen in an aromatic ring:
Results for NS(=O)(=O)c1ccc(N=Nc2c(O)[nH]c3ccc(Br)cc23)cc1 ?
Rtt109 Vps75: 3.5; HTR5A ag: -0.7; dFosB activator: -0.7; cardiac RTF act: -6.0; Wnt bcat act: 0.9

What do the screens show for `CC[C@H](CO)Nc1nc(Nc2cccc(Cl)c2)c2ncn(C(C)C)c2n1`?
Rtt109 Vps75: 10.8; HTR5A ag: 3.0; dFosB activator: -5.2; cardiac RTF act: 1.9; Wnt bcat act: -3.5

Results for COc1cccc(Nc2ncnc3ccccc23)c1 ?
Rtt109 Vps75: 6.3; HTR5A ag: -1.3; dFosB activator: 2.4; cardiac RTF act: 1.7

How did COc1c(N2C[C@@H]3CCCN[C@@H]3C2)c(F)cc2c(=O)c(C(=O)O)cn(C3CC3)c12 do in these assays?
Rtt109 Vps75: -99.1; HTR5A ag: -0.8; dFosB activator: -6.3; cardiac RTF act: -2.2; Wnt bcat act: 0.6

How did Cc1cnc(NC(=O)C2=C(O)c3ccccc3S(=O)(=O)N2C)s1 do in these assays?
Rtt109 Vps75: 17.5&14.4&9.7&-5.2; HTR5A ag: 1.3&-1.5&5.6&2.3; dFosB activator: -1.4&0.3&1.5&2.5; cardiac RTF act: -8.0&1.4&-1.7&-2.3; Wnt bcat act: -0.4&-0.5&-4.8&-1.1

What do the screens show for `Cc1cnc(NC(=O)C2C(=O)c3ccccc3S(=O)(=O)N2C)s1` (stereo not given)?
Rtt109 Vps75: -0.8; HTR5A ag: 2.7; dFosB activator: -0.4; cardiac RTF act: -2.4; Wnt bcat act: -1.7

What do the screens show for `CN(C)S(=O)(=O)c1ccc2c(c1)/C(=C/c1cc3c([nH]1)CCCC3)C(=O)N2`?
Rtt109 Vps75: 4.5; HTR5A ag: 4.2; dFosB activator: -14.2; cardiac RTF act: 61.2*; Wnt bcat act: 34.5*
